High-throughput results as filed in PubChem BioAssay.
RecA splice inh – Mtb RecA intein splicing inhibition; cell-free RecA intein splicing, fluorescence; inhibition, %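 (about 9 µM by stock and volumes)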; hit rate 0.75% among 290,000; P9WHJ3; in the data active means inhibition above about 30%; inconclusive means no clear call, values can overlap the other calls;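 further: 0% = vehicle wells and 100% = reference inhibitor control wells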
Target sequence (P9WHJ3 whole entry, looked up, canonical isoform): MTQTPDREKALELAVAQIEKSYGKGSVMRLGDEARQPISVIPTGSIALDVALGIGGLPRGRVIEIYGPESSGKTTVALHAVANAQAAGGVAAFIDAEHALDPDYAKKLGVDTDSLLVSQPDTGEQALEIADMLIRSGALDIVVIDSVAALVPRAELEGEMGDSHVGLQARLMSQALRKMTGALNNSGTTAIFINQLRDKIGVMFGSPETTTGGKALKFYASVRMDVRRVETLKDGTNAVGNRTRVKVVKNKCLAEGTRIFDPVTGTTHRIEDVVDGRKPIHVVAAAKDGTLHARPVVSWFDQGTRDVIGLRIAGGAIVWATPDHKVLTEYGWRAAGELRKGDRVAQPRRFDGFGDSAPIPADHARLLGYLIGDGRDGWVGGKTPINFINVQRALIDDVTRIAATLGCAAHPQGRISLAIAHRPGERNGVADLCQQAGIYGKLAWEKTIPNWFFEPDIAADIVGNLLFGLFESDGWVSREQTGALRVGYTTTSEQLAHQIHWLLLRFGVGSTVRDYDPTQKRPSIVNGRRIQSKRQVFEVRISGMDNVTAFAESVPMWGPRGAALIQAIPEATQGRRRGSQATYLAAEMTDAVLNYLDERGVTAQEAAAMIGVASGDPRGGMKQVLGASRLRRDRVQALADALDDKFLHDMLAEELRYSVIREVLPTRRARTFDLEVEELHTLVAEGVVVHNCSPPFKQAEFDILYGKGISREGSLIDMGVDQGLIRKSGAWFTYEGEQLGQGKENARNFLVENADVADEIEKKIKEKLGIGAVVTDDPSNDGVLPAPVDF
Arbovirus inh – antivirals against arbovirus infection | arbovirus infection cell-based antiviral screen | inhibition, % at 10 µM | hit rate 0.37% among 200,000;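 active means inhibition from about 30%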;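 further: bluetongue infection of BSR cells; cell survival read as ATP light after 72 h; 0% = infected wells without compound and 100% = uninfected wells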
Mtb betalactam – beta-lactam sensitization of Mtb H37Rv; inhibition, % at 25 µM; M. tuberculosis H37Rv growth with meropenem, percent inhibition; hits of this screen are not shown here; hit rate 0.27% among 330,000; AID 434955;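 active means about 74% or more and at least 40 points above the plate without the antibiotic, then above 30% in a dose series; inconclusive means first-round hits that could not be retested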;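 further: growth measured after seven days incubation then overnight dye step; 0% = bacteria only wells and 100% = bacteria with antibiotic; twin plates without the antibiotic show which effects depend on it; some results filed as inactive read as strong as hits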
Mtb growth – M. tuberculosis H37Rv growth inhibitors, H37Rv strain (AID 1626) | one-dose inhibition, % at 10 µM; IC50 in µM for titrated hits | hit rate 0.95% among 220,000 | M. tuberculosis H37Rv growth inhibition; higher % means a stronger effect;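 active means confirmed in a dose series; inconclusive means inhibition above 80% but not taken into the dose series; inactive means below 80% or under 30% at every dose of the series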;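 further: bacteria incubated seven days before Alamar blue readout; 0% = bacteria only wells and 100% = bacteria with antibiotic wells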
YopH PTP inh – blocks Yersinia enterocolitica YopH tyrosine phosphatase | hit rate 0.16% among 140,000 | AID 898 | fluorescence Ex485/Em525 | inhibition, %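 (about 10 µM by stock and volumes)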;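 active means inhibition of 50% or more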;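 further: controls were vehicle for no effect and minimum signal wells for full effect; inactives centre near -20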
Arbovirus inh repeat – also measured in Arbovirus inh; calls as there; inhibition, %; measured here: 10K subset replicate screen; many hits read low in the repeat;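 first of two repeat runs on a subset; 0% = infected and 100% = uninfected wells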
* marks the source's active call; other numbers are inactive results; u = inconclusive; x = no result given; & = joins results of further samples. An excerpt. The share of hits here may be higher or lower than overall.

SMILES	RecA splice inh	Arbovirus inh	Mtb betalactam	Mtb growth	YopH PTP inh	others
COc1ccc(CNS(=O)(=O)CCNC(=O)c2ccc(OC)cc2)cc1	-1.5	x	-3	x	x
O=C1c2cccc3cccc(c23)C(=O)N1CCN1CCN(C(=S)Nc2ccc(Cl)cc2)CC1	-10	6	2	2%	-28
CC(C)(O)C#Cc1ccc(CN2CCN(C3CCCCC3)C(CCO)C2)s1 (stereo not drawn)	0.4	6	-3	-3%	x
Cc1c(C(C)(C(=O)O)c2c(C)n(C)c3ccccc23)c2ccccc2n1C	-1.3	x	-1	-13%	x
COc1ccc(/C(O)=C(\C#N)c2nc3ccccc3n2C)cc1OC	-1.8	-14	-6	60%	-51
CCN(CC(=O)Nc1c(F)cccc1F)C(=O)c1ccc(S(=O)(=O)N2CCCCC2)cc1	0.1	x	1	x	x
CCOc1ccc(CNC2CCCCCCC2)cc1OC	-0.5	x	0	x	x
O=C(NCCSc1c[nH]c2ccccc12)c1ccc(Br)o1	3.6	5	-4	7%	-21	Arbovirus inh repeat=-12
Cc1ccc(CCN2CC(C(=O)N3CCC4(CC3)OCCO4)CC2=O)cc1 (stereo not drawn)	-1.1	11	-16	1%	-37
COC(=O)C(CC(=O)c1ccc(C)cc1)n1cccn1 (stereo not drawn)	2.5	x	4	x	x
O=C(CN1CC=C(c2ccccc2)CC1)Nc1c(Cl)cccc1Cl	6.0	14	-2	5%	-20
CC(=O)Nc1cccc(NC(=O)CCn2c(=O)sc3ccccc32)c1	-1.6	3	-1	2%	-2

The list goes on, starting with the last 7 of the part before.
SMILES	RecA splice inh	Arbovirus inh	Mtb betalactam	Mtb growth	YopH PTP inh	others
CCN(CC(=O)Nc1c(F)cccc1F)C(=O)c1ccc(S(=O)(=O)N2CCCCC2)cc1	0.1	x	1	x	x
CCOc1ccc(CNC2CCCCCCC2)cc1OC	-0.5	x	0	x	x
O=C(NCCSc1c[nH]c2ccccc12)c1ccc(Br)o1	3.6	5	-4	7%	-21	Arbovirus inh repeat=-12
Cc1ccc(CCN2CC(C(=O)N3CCC4(CC3)OCCO4)CC2=O)cc1 (stereo not drawn)	-1.1	11	-16	1%	-37
COC(=O)C(CC(=O)c1ccc(C)cc1)n1cccn1 (stereo not drawn)	2.5	x	4	x	x
O=C(CN1CC=C(c2ccccc2)CC1)Nc1c(Cl)cccc1Cl	6.0	14	-2	5%	-20
CC(=O)Nc1cccc(NC(=O)CCn2c(=O)sc3ccccc32)c1	-1.6	3	-1	2%	-2
Cc1ccc(-c2csc3nc4ccc(C(=O)NCCO)cc4c(=O)n23)cc1	-50	x	7	-3%	x
Cc1ccc(S(=O)(=O)N2CCC(C(=O)N3CCC(C(=O)NCC4CCCO4)CC3)CC2)cc1 (stereo not drawn)	4.7	10	3	x	-13
CCc1ccc(CCC(=O)Nc2nc(CC(C)=O)ns2)o1	x	10	-24	-1%	-18
Cc1ccc(-c2nnc(COC(=O)c3cc(=O)[nH]c4ccccc34)o2)cc1	-2.8	x	2	x	x
CN(CC(=O)NNC(=O)CCNS(=O)(=O)c1ccccc1)S(=O)(=O)c1ccc(Cl)cc1	1.9	x	-6	x	x
O=C(C1CCCN(CCCc2ccccc2)C1)N1CCCCCC1 (stereo not drawn)	3.3	-13	-5	0%	-27
CCOCCCNC(=O)C(NC(=O)c1ccc(NC(C)=O)cc1)c1ccc(C)cc1 (stereo not drawn)	0.1	5	-5	2%	-39
COc1ccc(CNC(=O)C(C)Cc2ccccc2)cc1O (stereo not drawn)	-8.7	-2	7	-5%	-10
CC1(C)C=Cc2c(c3c(c4c(=O)c(-c5ccc(O)cc5)coc24)OC(C)(C)CC3)O1	0.3	-27	10	39%	x	Arbovirus inh repeat=-20
O=C1CC(/C=C/c2ccccc2)=Nc2ccccc2N1	-0.6	-4	-4	2%	x
O=C(/C=C/c1cccs1)N1CCN(c2ccc(F)cc2)CC1	1.7	x	12	9%	x
O=C(COc1ccccc1-c1ccccc1)N/N=C/c1ccncc1	4.1	-10	1	-9%	x

As a working copy, part of the list above.
SMILES	RecA splice inh	Arbovirus inh	Mtb betalactam	Mtb growth	YopH PTP inh	others
Cc1ccc(-c2csc3nc4ccc(C(=O)NCCO)cc4c(=O)n23)cc1	-50	x	7	-3%	x
Cc1ccc(S(=O)(=O)N2CCC(C(=O)N3CCC(C(=O)NCC4CCCO4)CC3)CC2)cc1 (stereo not drawn)	4.7	10	3	x	-13
CCc1ccc(CCC(=O)Nc2nc(CC(C)=O)ns2)o1	x	10	-24	-1%	-18

(listing goes on)
SMILES	RecA splice inh	Arbovirus inh	Mtb betalactam	Mtb growth	YopH PTP inh	others
Cn1cccc1CNCc1ccc(F)cc1	-0.8	4	1	-3%	-22
O=C(Cc1ccccc1F)OCN1C(=O)c2ccccc2C1=O	0.3	x	0	x	x
O=C(COC(=O)/C=C/c1cccc(C(F)(F)F)c1)NCc1ccccc1	-1.0	-8	12	4%	-18
CC(=O)c1ccc(NC(=O)N[C@@H](CC(C)C)C(=O)O)cc1	0.0	0	-1	-6%	-19
O=C(O)c1nccnc1C(=O)NCc1csc2ccc(Cl)cc12	0.7	x	-3	-8%	x
CCCS(=O)(=O)c1ccc(COC(=O)c2ccc(NC(C)=O)cc2)cc1	x	-2	8	2%	x
N#Cc1cnn(-c2cccc(Cl)c2)c1N	-0.6	-2	-3	-5%	x
Cc1cccc(-n2c(Cc3cc(=O)[nH]c(=O)[nH]3)nnc2SCC(=O)NCc2ccco2)c1	x	x	-6	x	-55
Cc1ccc(OCc2cc(C(=O)N3CCCC(O)C3)no2)cn1 (stereo not drawn)	-1.0	x	-2	x	x
c1ccc2oc(C3=NNC(=NC4CC4)SC3)cc2c1	-1.2	0	75	11%	-12
CC(=O)NN1C(=O)c2ccccc2NC1c1ccco1 (stereo not drawn)	0.9	2	-1	4%	x
O=C(CCc1ccc(S(=O)(=O)NCCc2ccccc2)cc1)N1CCN(Cc2ccc3c(c2)OCO3)CC1	2.4	-5	37	12%	2
COC(=O)c1sc2ccccc2c1-n1cccc1C(=O)C(=O)Nc1ccccc1	9.0	-23	3	3%	-60
Cc1ccc(/C=C/C(=O)O)cc1S(=O)(=O)N(CCO)CCO	-1.1	5	-5	-5%	-1
COc1ccc(S(=O)(=O)Nc2ccc(-c3ccc4nncn4n3)cc2)c(OC)c1	-1.6	x	0	x	x
O=C(c1cc2ccccc2oc1=O)N1CCN(c2ccccn2)CC1	-1.5	-3	-15	-4%	10
O=C(NCc1ccc2c(c1)OCO2)c1ccc(CS(=O)Cc2cccc(Cl)c2)o1 (stereo not drawn)	0.2	x	-2	x	x
CCCc1cc(=O)oc2c3c(cc(OCC(=O)N[C@@H](C)C(=O)O)c12)OC(C)(C)CC3	0.0	x	6	x	x
CN1CCN(C(=O)CCN2C(=O)/C(=C\c3ccccc3F)SC2=S)CC1	-1.8	x	1	x	x
Clc1ccc2c(c1)-c1[nH]ncc1CS2	6.6	x	4	-2%	x
Cc1ccc(-c2cc(Cc3ccccn3)c(=O)[nH]n2)cc1	3.6	x	-16	1%	x
C=C1C(=O)O[C@@H]2C[C@@H](C)[C@@H]3C=CC(=O)[C@@]3(C)[C@@H](OC(=O)CC(=O)O[C@H]3[C@@H]4C(=C)C(=O)O[C@@H]4C[C@@H](C)[C@@H]4C=CC(=O)[C@]43C)[C@H]12	33*	x	100	1.5µM*	x
C=CCn1c(=S)[nH]c2nc3c(cc2c1=O)CCCC3	2.0	10	6	2%	-7
O=C(Nc1ccccc1F)c1cnccn1	0.0	3	-1	-2%	x
CC1CC(=O)Nc2ccccc2N1S(=O)(=O)c1cccs1 (stereo not drawn)	-0.2	x	0	-1%	x
O=C(c1ccc(Cl)s1)N(Cc1nnc(-c2ccccc2Cl)o1)C1CC1	5.7	x	-2	x	x
CC(=O)Nc1nnc(SCC(=O)N2CCCc3ccccc32)s1	-2.1	-4	6	-7%	x
C/C(CC(=O)NCc1ccc(Cl)cc1)=N\NC(=O)c1ccccc1F	x	-2	85	3%	x
NC(=O)CCN1CCN(Cc2cn[nH]c2-c2cccc3ccccc23)CC1	-0.2	6	-6	1%	x
Cc1nn(-c2ccc(N3CCCCC3)nn2)c(C)c1CCC(=O)Nc1cc(F)ccc1F	1.7	x	-3	x	x
CCCCn1nc2cc(C(=O)NC3CCCc4ccccc43)ccc2c1OCC (stereo not drawn)	6.1	4	12	-1%	-57
CCc1cc2c(=O)c(-c3nc4ccccc4n3C)c(C)oc2c(CN2CCN(CCO)CC2)c1O	-2.7	8	-5	-9%	-39
O=C(NCc1ccc(F)cc1)C(c1ccccc1)N(C(=O)c1csnn1)C1CC1 (stereo not drawn)	0.2	5	2	4%	x
c1ccc(C2CCC(N3CCC(N4CCCCC4)CC3)CC2)cc1 (stereo not drawn)	2.3	-34	-15	x	-3
NC(=O)c1cc([N+](=O)[O-])ccc1NCCN1C(=O)c2ccccc2C1=O	1.0	3	-9	-4%	x
CCOC(=O)C1(Cc2cccc(OC)c2)CCCN(Cc2cc(C(C)C)n[nH]2)C1 (stereo not drawn)	x	-3	-1	7%	x
CCCn1c(N)c(N(CCOC)C(=O)c2ccc(-c3ccc(Cl)cc3)o2)c(=O)[nH]c1=O	-2.1	x	3	x	x
CCCCOc1c(Cl)cc(CNC(C)(C)CO)cc1OCC	-1.8	-21	7	5%	-3
COc1cc(/C(C)=N/NC(=O)c2nnn(-c3nonc3N)c2-c2cccs2)ccc1O	-2.1	x	2	x	x
Cc1ccc(S(=O)(=O)NCC(=O)NCC(=O)N(C)Cc2ccc3ccccc3c2)cc1C	3.3	x	4	x	x
CC(C)(C)C1C/C(=C/c2ccccn2)C(=O)/C(=C/c2ccccn2)C1 (stereo not drawn)	4.1	-28	100	u	x
COCCN(C(=O)c1cccc(-n2cnnn2)c1)c1c(N)n(CC(C)C)c(=O)[nH]c1=O	-0.8	x	-7	x	x
Cc1cc(C)cc(NC(=S)NCCc2c[nH]c3ccccc23)c1	8.8	-20	2	14%	-21
NCc1ccc(S(N)(=O)=O)cc1	5.2	0	4&5	-13%	-28
CN(C)c1ccc(C2N(C)C(=O)c3ccccc3N2C)cc1 (stereo not drawn)	0.3	x	2	x	x
Cc1nc2ccccc2c(=O)n1NC(=O)c1cccc([N+](=O)[O-])c1	-5.4	10	-12	-5%	x
O=C(NCC1COc2ccccc2O1)C1(c2ccccc2)CCCC1 (stereo not drawn)	5.9	-1	-4	-3%	x
O=C(NC1CCN(Cc2ccccc2)CC1)c1ccccc1Cl	1.1	x	-7	x	x
Cc1cc(C)nc(NS(=O)(=O)c2ccc(N=Cc3c(C)[nH]n(-c4ccccc4)c3=O)cc2)n1	-1.7	-8	-3	-3%	3
